GCN5L2 inh – inhibitors of human GCN5L2 histone acetyltransferase; actives 0.21% (n = 390,000); Potency, µM (series often up to 58.9 µM), inactives show at the top dose activity change, negative = inhibition, actives largely listed as inhibitors; Q92830; GCN5L2 HAT assay, ThioGlo1 CoA-SH fluorescence
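Enzyme at 20nM final was mixed with library compounds for 15 min at room temperature. Peptide H3(1-25) at 75uM, acetyl-CoA at 70uM and ThioGlo1 at 50uM were then added. Plates were read immediately and after 20 min (Ex340nm/Em540nm).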
FEN1 inhibitor – inhibitors of human flap endonuclease 1. P39748. Recombinant FEN1 flap cleavage, fluorescence, 15 min. Potency, µM (series often up to 114 µM), inactives show at the highest dose activity change, negative = inhibition, hits mostly inhibitors. actives 0.35% (n = 390,000). AID 588795; note: nearly all actives have a fitted effect of over 65% in size
Target sequence (P39748 whole entry, looked up): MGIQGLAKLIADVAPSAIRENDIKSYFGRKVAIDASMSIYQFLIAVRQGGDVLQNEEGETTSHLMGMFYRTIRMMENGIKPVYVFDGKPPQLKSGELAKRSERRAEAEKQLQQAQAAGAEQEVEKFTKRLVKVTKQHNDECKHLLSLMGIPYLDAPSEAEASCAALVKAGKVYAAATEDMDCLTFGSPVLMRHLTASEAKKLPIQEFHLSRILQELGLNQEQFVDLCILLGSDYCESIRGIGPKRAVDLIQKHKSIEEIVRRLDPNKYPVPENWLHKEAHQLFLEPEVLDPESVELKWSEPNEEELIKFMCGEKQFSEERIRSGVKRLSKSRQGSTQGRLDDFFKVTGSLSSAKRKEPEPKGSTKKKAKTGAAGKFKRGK
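Reaction started by adding substrate (50 nM final) to 10 nM enzyme after 15 min room-temperature compound preincubation. Reads at 0 and 15 min, with data normalized and fitted to a four-parameter Hill equation.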
* = called active by the depositor; u = inconclusive; x = not tested or not shown; & = joins results of further samples; [ ] = remark or other dose. Calls come from the whole dose curve; as a rule, active = well fitted curve in the direction sought with a large enough effect; inconclusive = small, poorly fitted or top-dose-only effect, or another doubt; inactive = no such curve, though single readings can be large; an effect the other way counts as inactive or inconclusive. % is set by controls: 0 for no effect and ±100 for the full control effect; potency is the fitted concentration of half-maximal effect. These rows are one share of the data, and most or all hits are left out here.

SMILES | GCN5L2 inh | FEN1 inhibitor
CCn1cnc2c1c(=O)n(CC(=O)NCC(F)(F)F)c(=O)n2Cc1ccccc1 | -5% | 6%
CSc1nc(Oc2ccc(F)cc2)c2ccccc2n1 | 4% | -3%
COc1cc(C2C3=C(CCCC3=O)Nc3c2c(C)nn3-c2cccc(C)c2)cc(OC)c1O (stereo not drawn) | -13% | -2%
COC(=O)C1CCCCN1C(=O)c1cc(COc2cccc3cnccc23)on1 (stereo not drawn) | -24% | x
CC(=O)c1c(C)[nH]c(C(=O)Nc2ccc(C)c(S(=O)(=O)N(C)C)c2)c1C | 0% | -5%
O=C(CSc1nc2ccccc2[nH]1)N/N=C/c1ccco1 | -5% | 1%
C=CCc1ccc(OCCOCCOc2ccccc2[N+](=O)[O-])c(OC)c1 | u | -14%
COc1c(S(=O)(=O)NCCN2CCOCC2)ccc(Cl)c1Cl | -7% | -6%
CCNc1[nH]c(=O)n(C)c(=O)c1N=O | -13% | 0%
Cc1ccc(C)c(NC(=O)CSc2nccn2Cc2ccco2)c1 | u | 17%
O=C(CNS(=O)(=O)c1ccc(Br)cc1)NCc1cccnc1 | -7% | 5%
COc1cccc(N2CCN(C(=O)CCC(=O)N3CCOc4ccc(C)cc43)CC2)c1 | -15% | 7%
CC1CCCN(C(=O)Cn2c(=O)oc3cc(S(=O)(=O)N4CCCCC4)ccc32)C1 (stereo not drawn) | -5%&3% | 20%&20%
Cc1cc(C)cc(Nc2nc3ccccc3c(=O)[nH]2)c1 | u | 2%
CCCS(=O)(=O)N1CCN(CC2CC3C=CC2C3)CC1 (stereo not drawn) | -2% | 2%
CC(=O)c1ccc(NC(=O)Nc2ccc([N+](=O)[O-])cc2)cc1 | -2% | -5%
CCn1c(=NC(=O)CN2C(=O)CCC2=O)sc2c(OC)ccc(OC)c21 | -8% | 14%
CC(NC(=O)c1ccccc1Cl)C(=O)O (stereo not drawn) | -6% | -5%
Cc1occc1C(=O)NNC(=O)c1ccccc1[N+](=O)[O-] | -6% | 16%
Cc1cc(NC(=O)C(C)(C)C)no1 | -3% | 2%
O=[N+]([O-])c1c(Nc2ccccc2)ccc2nonc12 | 2% | -3%
O=C(/C=C/c1ccccc1)N/C(=C/c1ccccc1)C(=O)N1CCCCC1 | -10% | -14%
Cc1cc(/C=C(\C#N)C(=O)N2CCCCC2)cc(C)c1O | -4% | 1%
CC(C)Cc1ccc(CN2CCC(n3nccc3NC(=O)C3CCCC3)CC2)cc1 | -14% | 1%
COc1ccccc1NC(=O)c1ccc2nsnc2c1 | -7% | -4%
CN(C)S(=O)(=O)c1ccccc1N=C=S | 2% | 16%
COCCn1c(SCC(=O)Nc2cc(C)on2)nnc1-c1ccco1 | -2%[0.501 µM] | 2%
COCCNC(=S)Nc1ccc(S(=O)(=O)Nc2cnc3ccccc3n2)cc1 | 0% | -2%
Brc1ccccc1OCCCOc1cccc2cccnc12 | -11% | 2%
CCC1=C2CC[C@H]3C(=O)N(CC)C(=O)[C@H]3[C@H]2[C@@]2(Cc3ccccc3)C(=O)N(Cc3ccccc3)C(=O)N2C1=O | -4% | -1%
CCc1ccc(OCC(O)CN2CCN(CCO)CC2)cc1 (stereo not drawn) | -21% | -4%
CCOc1ccccc1NC(=O)C(OC(=O)c1ccc(NC(=O)CC#N)cc1)c1ccccc1 (stereo not drawn) | u | 6%
Fc1ccccc1NC(=S)N1CCOCC1 | 33% | 10%
O=C(Cc1ccccc1)NCC(=O)Nc1cccc(Cl)c1 | 0% | 10%
O=C(NCCCN1CCCC1=O)Nc1ccc([N+](=O)[O-])cc1 | -6% | 10%
CCN(CC)S(=O)(=O)c1ccc(NS(=O)(=O)c2ccc(C)c(C)c2)cc1 | -4% | -11%
O=C(c1cc(-c2cccc(Cl)c2)on1)N1CCN(c2ccccc2)CC1 | -14%&-14% | -5%&-11%
COc1ccc(CNCc2ccc3c(c2)OCO3)c(OC)c1OC | -14% | 6%
Cc1ccc(OCCn2cnc3c(N)ncnc32)cc1 | -9% | -6%
Cc1ccc(S(=O)(=O)CC2CSc3nnc(C)c(=O)n32)cc1 (stereo not drawn) | 1% | 4%
COc1ccc(NCC(=O)Nc2ccc(Cl)cc2C)c(OC)c1 | -12% | -15%
N#Cc1ccccc1NC(=O)C(=O)NCCc1csc(-c2ccc(F)cc2)n1 | -6% | -2%
Cn1c(=O)c2c(ncn2Cc2cccc(Cl)c2)n(C)c1=O | -17% | -4%
CCOC(=O)NC(=O)c1cn(-c2ccc(OC)cc2)c(=O)[nH]c1=O | 4% | 17%
C/C(=N\NC(=O)CN1CCN(S(=O)(=O)c2ccc(C)cc2)CC1)c1cccnc1 | -1% | -6%
CNC(=O)N1CCC(C(=O)c2c(C)c(C)c(C)c(C)c2C)CC1 | -4% | 0%
N#Cc1ccc(CSc2ncnc3c2cnn3Cc2ccccc2)cc1 | -7% | -12%
CCCCn1c(=O)nc2n(-c3ccccc3)c3ccccc3cc-2c1=O | -5% | -3%
Cc1ccc(N(C(=O)c2csnn2)C(C(=O)NC2CCCC2)c2cccnc2)c(C)c1 (stereo not drawn) | -2% | 5%
COC(=O)c1ccc(C2/C(=C(\O)c3ccc4c(c3)OCCO4)C(=O)C(=O)N2CCCN(C)C)cc1 (stereo not drawn) | -9% | 9%
The listing continues.
SMILES | GCN5L2 inh | FEN1 inhibitor
Cc1cccn2c(=O)nc(SCC(=O)NCc3ccccc3)nc12 | -1% | -1%
OCCN(CCO)CC(O)COc1ccc2c(c1)OCO2 (stereo not drawn) | 0% | -2%
O=C(NC1CCCC1)C(c1ccc(F)cc1)N(C(=O)Cc1cccs1)c1ccc2c(c1)OCCO2 (stereo not drawn) | -3% | 1%
CCOC(=O)c1cccc(NC(=O)CN(c2ccc(C)cc2)S(=O)(=O)c2c(C)noc2C)c1 | -15% | -7%
COc1ccc(-n2c(C)cc(C(=O)CN3C(=O)C(=O)N(Cc4ccccc4)C3=O)c2C)cc1 | -4% | -7%
Cc1c(N(C)S(=O)(=O)c2cc(C(=O)Nc3ccccn3)ccc2Cl)c(=O)n(-c2ccccc2)n1C | -1% | 6%
Cc1ccc(/C=C2/C(=O)N=C(N)N2C)s1 | -5% | -2%
O=C(/C=C/c1ccc(OC(F)F)cc1)OCC(=O)N1CCN(C(=O)c2ccco2)CC1 | -9% | 6%
NC(=O)Cc1nc2scc(-c3ccc(Cl)cc3)c2c(=O)[nH]1 | 16% | -13%
CCOc1ccccc1C(=O)NCC(=O)NCC(c1ccc(OC)cc1)N1CCOCC1 (stereo not drawn) | -2% | 0%

20 of the compounds above, with two lines to a compound:
Second line of a record – GCN5L2 inh	FEN1 inhibitor
> COc1ccc(NCC(=O)Nc2ccc(Cl)cc2C)c(OC)c1
    -12%	-15%
> N#Cc1ccccc1NC(=O)C(=O)NCCc1csc(-c2ccc(F)cc2)n1
    -6%	-2%
> Cn1c(=O)c2c(ncn2Cc2cccc(Cl)c2)n(C)c1=O
    -17%	-4%
> CCOC(=O)NC(=O)c1cn(-c2ccc(OC)cc2)c(=O)[nH]c1=O
    4%	17%
> C/C(=N\NC(=O)CN1CCN(S(=O)(=O)c2ccc(C)cc2)CC1)c1cccnc1
    -1%	-6%
> CNC(=O)N1CCC(C(=O)c2c(C)c(C)c(C)c(C)c2C)CC1
    -4%	0%
> N#Cc1ccc(CSc2ncnc3c2cnn3Cc2ccccc2)cc1
    -7%	-12%
> CCCCn1c(=O)nc2n(-c3ccccc3)c3ccccc3cc-2c1=O
    -5%	-3%
> Cc1ccc(N(C(=O)c2csnn2)C(C(=O)NC2CCCC2)c2cccnc2)c(C)c1 (stereo not drawn)
    -2%	5%
> COC(=O)c1ccc(C2/C(=C(\O)c3ccc4c(c3)OCCO4)C(=O)C(=O)N2CCCN(C)C)cc1 (stereo not drawn)
    -9%	9%
> Cc1cccn2c(=O)nc(SCC(=O)NCc3ccccc3)nc12
    -1%	-1%
> OCCN(CCO)CC(O)COc1ccc2c(c1)OCO2 (stereo not drawn)
    0%	-2%
> O=C(NC1CCCC1)C(c1ccc(F)cc1)N(C(=O)Cc1cccs1)c1ccc2c(c1)OCCO2 (stereo not drawn)
    -3%	1%
> CCOC(=O)c1cccc(NC(=O)CN(c2ccc(C)cc2)S(=O)(=O)c2c(C)noc2C)c1
    -15%	-7%
> COc1ccc(-n2c(C)cc(C(=O)CN3C(=O)C(=O)N(Cc4ccccc4)C3=O)c2C)cc1
    -4%	-7%
> Cc1c(N(C)S(=O)(=O)c2cc(C(=O)Nc3ccccn3)ccc2Cl)c(=O)n(-c2ccccc2)n1C
    -1%	6%
> Cc1ccc(/C=C2/C(=O)N=C(N)N2C)s1
    -5%	-2%
> O=C(/C=C/c1ccc(OC(F)F)cc1)OCC(=O)N1CCN(C(=O)c2ccco2)CC1
    -9%	6%
> NC(=O)Cc1nc2scc(-c3ccc(Cl)cc3)c2c(=O)[nH]1
    16%	-13%
> CCOc1ccccc1C(=O)NCC(=O)NCC(c1ccc(OC)cc1)N1CCOCC1 (stereo not drawn)
    -2%	0%

(next part)
SMILES | GCN5L2 inh | FEN1 inhibitor
Cc1cc(C)cc(N2CC34C=CC(O3)C(C(=O)OCC(=O)NCc3ccco3)C4C2=O)c1 (stereo not drawn) | -3% | 0%
Cc1ccc(N=Nc2c(N)nn3c(N)c(C#N)c(C)nc23)cc1 | 6% | u
Cn1c(=O)c2c(nc(N3CCN(c4ccccn4)CC3)n2Cc2ccc(Cl)cc2Cl)n(C)c1=O | -13% | 1%
CCCCN1C(=O)N(C)C2NC(=S)NC21 (stereo not drawn) | -3% | 12%
CCOC(=O)N1CCC(NC(=O)c2cnn3c(C(F)(F)F)cc(-c4cccc(OC)c4)nc23)CC1 | -3% | -3%
CC(=O)c1cccc(NC(=O)c2ccc(C)o2)c1 | -8% | -4%
COc1ccccc1C(=O)NC(=O)Nc1nc(-c2ccccc2)cc(C(F)(F)F)n1 | -11% | 3%
COc1ccc(C(=O)CCC(=O)N2CCN(c3ccccc3)CC2)cc1 | u | -10%
CCOc1ccc(S(=O)(=O)NNS(=O)(=O)c2ccc(C)cc2C)cc1 | -6% | 9%
COc1cccc(NC(=O)C2CCCO2)c1 (stereo not drawn) | -13% | -4%
COc1ccc(-c2cn(Cc3ccc(C(=O)c4ccccc4)cc3)nn2)cc1 | -8% | 10%&-20%
Cc1onc(-c2ccccc2)c1C(=O)OCC(=O)Nc1ccccc1 | 0% | -4%
COc1cc(Cl)ccc1OCc1cc(C(=O)N2C[C@@H]3CCC[C@H]2C3)no1 | -17% | -1%
CC(Nc1nc(N2CCOCC2)nc2ccccc12)c1ccccc1 (stereo not drawn) | -1% | 10%
COc1ccc(OC)c(C2C=C(C34CC5CC(CC(C5)C3)C4)NC(=S)N2)c1 (stereo not drawn) | -9% | 4%
Cc1nc([N+](=O)[O-])c(Br)n1CC(=O)c1ccccc1 | 1% | 8%
COc1cccc(C(=O)NCCS(=O)(=O)N(C)Cc2ccccc2)c1 | -9% | -4%
O=c1[nH]cccc1-c1nc2ccccc2n1Cc1ccccc1F | -6% | -2%
c1ccc2c(c1)CCCN2Cc1nnnn1CC1CCCO1 (stereo not drawn) | 8% | 6%
Cc1ccc(Sc2nc3c(c(=O)[nH]c(=O)n3C)n2CCc2ccccc2)cc1 | -8% | -5%
COC(=O)C1=C(C)N(c2ccc(F)cc2)C(=O)C1 | -13% | -7%
COc1ccc(Cl)cc1NC(=O)c1nnn(CC(=O)Nc2ccc(C)c(C)c2)c1N | -5% | -2%
CC(C)NC(=O)c1ccc(CN2CCc3ccccc3C2)cc1 | -2% | -7%
O=C(CCNC(=O)c1ccc(Br)cc1)Nc1ccc(S(=O)(=O)Nc2ncccn2)cc1 | -2% | 2%
O=C(c1ccco1)[C@@H]1[C@@H]2C(=O)N(c3ccc(F)cc3)C(=O)[C@@H]2[C@H]2C=Cc3ccccc3N21 | -3% | -7%
CCCC(c1nnnn1CCc1ccccc1)N1CCN(C2CCCC2)CC1 (stereo not drawn) | -6% | -5%
CC(=O)N(CCc1cccc(C)c1)Cc1cc2ccc(C)cc2[nH]c1=O | -1% | 3%
COc1cccc(NC(=O)CN2CCSc3ccccc32)c1 | -12% | 3%
O=[N+]([O-])c1cc(/C=N/N2CCOCC2)cs1 | 9% | -5%
Cc1cc(C)n2c(SCC(=O)Nc3ncc(C(F)(F)F)cc3Cl)nnc2n1 | -14% | 0%
COc1cc(NC(=O)C2CCCCC2)c(OC)cc1NC(=O)CCC(=O)NCc1ccco1 | -2% | -16%
COc1cc(OC)nc(NC(=O)CSc2nc3ccccc3o2)n1 | -2% | -5%
CC(=O)Nc1cc(S(=O)(=O)Nc2ccccc2C)c(C)cc1C | -8% | -3%
COc1ccc(-c2c3c(nc4sc(C(=O)Nc5cc(C)on5)c(N)c24)CCC3)cc1 | -6% | -11%
COc1ccc(-c2cn3cccnc3n2)cc1NC(=O)c1cc(OC)c(OC)c(OC)c1 | -11% | -9%
O=C(OCCN1C(=O)c2ccccc2C1=O)c1ccccc1 | -3% | 0%
O=C(c1ccc(-c2ccccc2)cc1)C1CCCN(C(=O)Cn2cncn2)C1 (stereo not drawn) | -4% | 7%
